# Bioassay records (PubChem)
# Cruzain inh Det = inhibitors of Trypanosoma cruzi cruzain with detergent. purified cruzain, Z-FR-AMC fluorescence, 0.01% Triton. P25779. AID 1478. 0.43% of 200,000 active. Potency, µM, inactives show max response, negative = inhibition, hits mostly inhibitors;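 further: plate controls were neutral wells for no effect and buffer without enzyme for full effect; nearly all actives have a fitted effect of over 40% in size; top concentration of the series not given in the record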
# Target sequence (P25779 123-467 limits assumed): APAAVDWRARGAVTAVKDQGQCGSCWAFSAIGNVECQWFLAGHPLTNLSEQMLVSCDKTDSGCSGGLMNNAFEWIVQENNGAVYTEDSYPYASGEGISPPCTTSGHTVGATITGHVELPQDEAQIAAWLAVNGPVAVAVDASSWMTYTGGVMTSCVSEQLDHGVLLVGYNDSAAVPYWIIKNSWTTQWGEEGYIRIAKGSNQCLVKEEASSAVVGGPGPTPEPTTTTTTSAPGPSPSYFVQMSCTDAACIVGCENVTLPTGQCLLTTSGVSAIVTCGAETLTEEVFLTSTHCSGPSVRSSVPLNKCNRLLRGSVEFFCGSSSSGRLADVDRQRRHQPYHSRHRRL
#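 Read-out: AMC fluorescence (360 nm excitation, 450 nm emission), four reads over 2 min, first-to-third difference used. Conditions: cruzain 1.5 nM, Z-FR-AMC 2 uM, pH 5.5 acetate, 5 mM DTT, 0.01% Triton X-100.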
# SARS PLpro yeast = SARS-CoV PLP inhibition in yeast; S. cerevisiae expressing SARS-CoV PLpro, growth rescue; control for the full effect not named in the record; Potency, µM (titrated, usually from 32.9 µM), inactives show top-dose activity, positive = growth rescue; 0.19% of 330,000 active; active means well fitted rising curve with a large enough effect; inconclusive means small, poorly fitted or top-dose-only effect; inactive means no such curve, though single readings can be large or run the other way; further: 0% is about no effect; nearly all actives have a fitted effect of over 55% in size; growth read by luminescence after 48 h
# Cruzain inh noDet = inhibitors of Trypanosoma cruzi cruzain without detergent; Potency, µM, for inactives: max response, negative = inhibition, usual class: inhibitors; 2.3% of 200,000 active; AID 1476; P25779; purified cruzain, Z-FR-AMC fluorescence, no detergent;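 further: plate controls were enzyme without inhibitor for no effect and buffer without enzyme for full effect; nearly all actives have a fitted effect of over 40% in size; top concentration of the series not given in the record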
#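 Purified cruzain at 1.5 nM, pre-incubated 15 min with compound at room temperature in 100 mM sodium acetate pH 5.5, 5 mM DTT, 0.00005% Triton X-100. Reaction started with 2 uM Z-FR-AMC; AMC fluorescence increase over 60 s gives rate.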
# RE007 growth inh = less growth of the S. pombe RE007 Vpr strain | 0.21% of 360,000 active | AID 651644 | S. pombe RE007 Vpr strain, BacTiter-Glo ATP luminescence, 24 h; control for the full effect not named in the record | Potency, µM (highest dose often 92.2 µM), for inactives: at the highest dose activity change, negative = less growth; active = well fitted falling curve with a large enough effect; inconclusive = small, poorly fitted or top-dose-only effect; inactive = no such curve, though single readings can be large or run the other way;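 further: on the % scale 0 is the no-effect control and ±100 the full control effect; nearly all actives have a fitted effect of over 50% in size; the assay follows cell death caused by Vpr and the record does not say whether a fall means rescue or toxicity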
#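 Fission yeast RE007 carrying one integrated HIV-1 vpr copy, seeded at OD 0.01 in PMG+AL medium with 23 nL pinned compound. Grown 24 h at 30 degrees; viability read by BacTiter-Glo luminescence after 5 min.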
# StopGo reporter = FMDV 2A StopGo reporter, luciferase signal; human cells with a luciferase reporter of 2A StopGo recoding; control for the full effect not named in the record; Potency, µM (top dose mostly 57.9 µM), for inactives: at the top dose signal change, negative = less light; 1.2% of 410,000 active; active = well fitted falling curve with a large enough effect; inconclusive = small, poorly fitted or top-dose-only effect; inactive = no such curve, though single readings can be large or run the other way; tested in HEK293T cells; further: on the % scale 0 is the no-effect control and ±100 the full control effect; nearly all actives have a fitted effect of over 45% in size; luciferase light after 4 h
# Marburg entry inh = blocks Marburg virus binding to or entry into cells | Marburg virus pseudotyped entry inhibition, cell reporter; control for the full effect not named in the record; about a third of the inactives were read at about 46 µM | Potency, µM (top dose mostly 37.8 µM), for inactives: at the top dose activity change, negative = inhibition, actives largely listed as inhibitors | 1.8% of 300,000 active; active = well fitted inhibition curve with a large enough effect; inconclusive = small, poorly fitted or top-dose-only effect, or effect the other way; inactive = flat fitted curve, though single readings scatter; tested in HEK293 cells; about a fifth of its hits are not listed in these tables; further: on the % scale 0 is the no-effect control and ±100 the full control effect; luciferase read-out
# NS1 function inh = blocks influenza NS1 protein function | AID 2326 | Potency, µM (series often up to 46.1 µM), inactives show at the highest dose activity, positive = more growth | 0.4% of 270,000 active | S. cerevisiae slowed by influenza A NS1, growth recovery by OD600; active means well fitted rising curve with a large enough effect; inconclusive means small, poorly fitted or top-dose-only effect; inactive means no such curve, though single readings can be large or run the other way; further: nearly all actives have a fitted effect of over 50% in size
#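 OD600 was taken as the measure of yeast growth restored by compound in an NS1-expressing S. cerevisiae strain. Cells had been washed out of glucose medium and diluted 1:100 into galactose -URA medium, pH 6.0.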
# LASV entry inh = Lassa virus entry inhibition | Lassa virus pseudotype entry inhibition, cell reporter; control for the full effect not named in the record | Potency, µM (series often up to 37.9 µM), for the others: top-dose activity change, negative = inhibition, hits mostly inhibitors | 1.2% of 300,000 active; active means well fitted inhibition curve with a large enough effect; inconclusive means small, poorly fitted or top-dose-only effect, or effect the other way; inactive means flat fitted curve, though single readings scatter; tested in HEK293 cells; further: on the % scale 0 is the no-effect control and ±100 the full control effect; nearly all actives have a fitted effect of over 50% in size; luciferase read-out
# Numbers without * were called inactive; u = inconclusive; x = not tested or not shown; [ ] = another dose, or the depositor's remark. Unless noted, the call rests on the fitted dose curve; in most records, active means well fitted curve in the direction sought with a large enough effect; inconclusive means small, poorly fitted or top-dose-only effect, or another doubt; inactive means no such curve, though single readings can be large; an effect the other way counts as inactive or inconclusive. Potency means the concentration at half of the fitted maximal effect.
# Under each structure: SARS PLpro yeast	RE007 growth inh	LASV entry inh	Cruzain inh Det	Marburg entry inh	StopGo reporter	NS1 function inh	Cruzain inh noDet
Cc1ccc(OCC(=O)N2N=C(c3cccnc3)CC2(O)C(F)(F)F)cc1C (stereo not given)
    7%	4%	-2%	-0.9%	-16%	u	5%	-2%
CCN(CC)c1ccc(/C=N/NC(=O)c2cccc(S(=O)(=O)N3CCOCC3)c2)cc1
    -22%	4%	-37%	-6.5%	8%	14µM*	-5%	23%
O=C(CC(=O)Nc1cccc(Cl)c1)N/N=C\c1ccccc1
    4%	7%	-3%	1.5%	20%	16%	-8%	-26%
Cc1oc(-c2ccccc2F)nc1CS(=O)(=O)CC(=O)NCc1ccco1
    -1%	6%	x	-0.1%	x	-22%	5%	8%
CCN(CC)S(=O)(=O)c1ccc2oc(SCc3ccc(F)cc3)nc2c1
    -12%	63%	11µM*	-1.3%	u	u	-14%	-8%
Cc1ccccc1N1CC(c2nc3ccccc3n2Cc2ccc(Br)cc2)CC1=O (stereo not given)
    x	x	u	-2.7%	4%[46.1 µM]	0%	x	5%
COc1ccc(NS(=O)(=O)c2ccc(N3CCCC3)c(NC(=S)Nc3cccc(S(=O)(=O)N(C)C)c3)c2)cc1
    -4%	x	5%	-16%	-25%	x	u	-14%
O=C(O)c1ccccc1C(=O)Nc1ccc(Oc2ccc3ccccc3c2)cc1
    -2%	12%	u	x	u	-5%	6%	x
CCCCc1ccc(NC=C2C(=O)OC3(CCCCC3)OC2=O)cc1
    15%	-16%	-2%	-4.0%	-6%	0%	-7%	7%
O=c1c(CN2CCN(Cc3ccccc3)CC2)coc2ccc(Cl)cc12
    -3%	u	8%	0.0%	-26%	34%[activator]	-12%	-8%
Cc1ccsc1CN(Cc1ccco1)c1cnc(S(C)(=O)=O)nc1C(=O)Nc1ccc(Cl)cc1
    x	x	-21%[46.1 µM]	-1.7%	u	-18%	x	u
Cc1ccc(OCC(=O)N2CCC(N3CC(C)CC(C)C3)CC2)cc1 (stereo not given)
    u	2%	1%	x	14%	-23%	0%	x
CCCCCCN1C=C/C(=C\C=C(C#N)C#N)c2ccccc21
    -9%	-3%	-30%	-5.2%	-14%	u	9%	-9%
CCN(c1ccccc1)S(=O)(=O)c1cc(C(=O)OC(C)C(=O)Nc2ccc3c(c2)OCCO3)ccc1C (stereo not given)
    -2%	-8%	x	x	x	-22%	16%	x
O=C(Nc1ccccc1Br)c1cc(=O)c2ccccc2o1
    -2%	7%	3%[46.1 µM]	x	u	36%[activator]	-16%	x
Cc1ccccc1OCC(=O)Nc1cc(-c2cccc(Br)c2)nn1-c1ccccc1
    x	x	-8%[46.1 µM]	2.8%	x	-5%	x	6%
CN1CCc2c(sc3c2C(=O)NC(c2ccco2)N3)C1 (stereo not given)
    10%	-11%	21%	-5.9%	8%	23%	11%	-22%
Cc1ccc(-c2n[nH]c(=O)c3ccccc23)cc1S(=O)(=O)NC(C)(C)C
    1%	1%	-26%[46.1 µM]	x	-15%[46.1 µM]	-19%	2%	x
CCOC(=O)c1c(NC(=O)COc2ccc(OC)cc2)sc(C(=O)N(CC)CC)c1C
    x	x	-22%[46.1 µM]	-12%	u	u	x	u
O=C(Nc1ccc(F)cc1)C1C(c2ccccc2)C1(Cl)Cl (stereo not given)
    -76%	-36%	-6%	-8.5%	-21%	u	-48%	-13%
CCc1nc2ccccc2c(=O)n1-c1ccccc1[N+](=O)[O-]
    8%	-5%	5%	-1.1%	15%	-24%	0%	-2%
CCc1ccc(NC(=O)Nc2nnc(N(C)C3CCCCC3)s2)cc1
    x	x	x	-11%	-4%[46.1 µM]	1%	x	u
S=c1[nH]nc(-c2ccc3ccccc3n2)n1-c1cc(Cl)cc(Cl)c1
    17%	3%	-6%	2.8%	-17%	-23%	9%	u
COc1ccc(NC(=O)CC2C(=O)N(c3cccc(C)c3)C(=O)N2Cc2cccnc2)cc1 (stereo not given)
    x	x	3%[46.1 µM]	-0.6%	x	-9%	x	7%
CCOc1ccc(C2C(C(=O)c3ccco3)=C(O)C(=O)N2CCN(C)C)cc1 (stereo not given)
    3%	x	x	2.0%	-1%	x	6%	-2%
CCN(CC)c1ccc(NC(=O)c2cccn2-c2nnc(N3CCCCC3)s2)c(C)c1
    x	x	u	1.5%	x	u	x	-12%
COC(=O)c1[nH]c(C)c(/C(O)=C2\C(=O)C(=O)N(CCN(C)C)C2c2cccc(OC)c2OC)c1C (stereo not given)
    20%	0%	10%	-7.6%	-6%	3%	5%	0%
CCCn1cnc2sc(CC)cc2c1=O
    -3%	-2%	7%	-2.0%	-6%	11%	-1%	-14%
C=CCOC(=O)C(C(=O)Cc1ccccc1)c1ccccc1 (stereo not given)
    x	7%	0%[46.1 µM]	x	u	-3%	x	x
O=C1NCCN/C1=C\C(=O)c1ccc(Cl)cc1
    -6%	6%	u	x	u	10%	-32%	x
CCOC(=O)C1C(=O)CC(C)(O)C(C(=O)OCC)C1c1ccco1 (stereo not given)
    4%	-14%	-2%	1.8%	-19%	-5%	6%	-5%
CSc1nc(-c2ccc(Cl)cc2)nc(N)c1C#N
    2%	-4%	1%	x	-1%[46.1 µM]	0%	0%	x
Cc1c(NS(=O)(=O)c2ccc3c(c2)NC(=O)CC(=O)N3)cccc1[N+](=O)[O-]
    -1%	19%	x	x	x	-14%	-5%	x
C#CCOC(=O)Nc1cnccc1C(F)(F)F
    -2%	7%	-10%[46.1 µM]	x	6%[46.1 µM]	5%	-2%	x
C(=N\c1nc2ccccc2[nH]1)/c1cccs1
    0%	-12%	35%[14.3 µM]	-4.4%	13%	15%	-3%	-18%
COCCNC(=O)CSc1nc(-c2cc(OC)c(OC)c(OC)c2)[nH]c1-c1ccc(Cl)cc1
    x	x	0%[46.1 µM]	-14%	u	10%	x	u
CC(=O)Nc1ccc2c(c1)N(S(=O)(=O)c1cccs1)CCC2
    0%	19%	-14%[46.1 µM]	x	-4%	23%	x	x
O=C1CCCN1CCCNC(=S)Nc1ccc(F)cc1
    -1%	3%	x	x	u	46%[activator]	0%	x
Cc1ccc(Oc2coc3cc(O)ccc3c2=O)cc1
    -3%	-6%	x	x	x	57%[activator]	-7%	x
COc1ccc(-c2nn(CC(=O)Nc3ccc(Cl)c(Cl)c3)c(=O)c3ccccc23)cc1
    -1%	17%	-3%	-0.5%	-20%[46.1 µM]	-22%	22%	7.9µM*
Cc1cccc(CCNC(=O)CN(C)S(=O)(=O)c2cnc[nH]2)c1
    2%	-3%	22%	-1.4%	35%	-11%	-6%	4%
CCC(CC)C(=O)N1CCN(c2ccccc2)CC1
    -1%	6%	0%	x	17%[46.1 µM]	2%	-1%	x
COc1ccc(-n2nc(C)c3c(=O)c4c([nH]c32)CCCC4)cc1
    1%	-2%	x	x	x	-25%	-1%	x
COc1ccc(C2CC(c3ccc(C)o3)=NN2C(C)=O)cc1 (stereo not given)
    16%	-1%	5%	-3.5%	u	33%[activator]	-2%	22%
Nc1c(C(=O)N2CCCCC2)sc2nc3c(cc12)CCCC3
    -2%	0%	12%[46.1 µM]	x	-24%[46.1 µM]	37%[activator]	-17%	x
CCc1ccccc1N1C[C@@]23C=C[C@@H](O2)C(C(=O)OCC(C)C)[C@H]3C1=O (stereo not given in full)
    1%	6%	9%	0.1%	5%	-5%	-7%	-5%
COC(=O)c1cnc(Nc2ccc(Cl)cc2)c([N+](=O)[O-])c1
    1%	10%	0%	x	-3%[46.1 µM]	7%	-3%	x
COc1ccc(/C(C)=N/NC(=O)CN(c2ccc(OC)cc2)S(=O)(=O)c2ccccc2)cc1
    -3%	-2%	x	x	x	-11%	3%	x
O=C(NCc1ccccc1Cl)c1cnc(N2CCCCC2)c2ccccc12
    x	x	1%[46.1 µM]	-13%	x	26%	x	4%
Cc1cccc(C)c1N1C(=O)CN(Cc2ccccc2)C1=S
    -6%	-1%	x	x	x	-29%	-4%	x
Cc1c(N=C/C=C/c2ccccc2)c(=O)n(-c2ccccc2)n1C
    -2%	-13%	2%	1.1%	5%	4%	-14%	4%
CC1CC(CC(=O)NC(=S)Nc2ccccc2Cl)C(=O)O1 (stereo not given)
    0%	-7%	x	x	x	10%	2%	x
Cc1ccc2c(c1)N(CC(=O)N1CCCCCC1)C(=O)C(C)O2 (stereo not given)
    -2%	0%	25%[46.1 µM]	x	u	-3%	29%	x
O=C(NN=C1CCN(Cc2ccccc2)CC1)c1cccc(S(=O)(=O)Nc2ccccc2Cl)c1
    -19%	2%	7%	1.4%	2%	3%	28%	-8%
COCC1CCCN(C(=O)c2cc(COc3ccc(C(C)=O)cc3)on2)C1 (stereo not given)
    x	-11%	-25%	x	4%	7%	x	x
Cc1cc(C)cc(NC(=O)c2sc3nc4n(c(=O)c3c2C)CCC4)c1
    -6%	9%	21%[46.1 µM]	x	u	14%	4%	x
Cc1noc(C)c1S(=O)(=O)N(CC(=O)N1CCn2c1nc1ccccc12)c1ccc(C(C)C)cc1
    0%	9%	x	1.1%	3%	-14%	-10%	-7%
CCOC(=O)C1CCN(S(=O)(=O)c2ccc(OC)c(C(=O)N3CCCCCC3)c2)CC1
    2%	2%	15%	x	-8%[46.1 µM]	-25%	-16%	x
CC(=O)Nc1ccc(S(=O)(=O)NC(C)c2ccncc2)cc1 (stereo not given)
    1%	10%	7%	x	-13%	-22%	x	x
N/C(=N\OC(=O)CCCc1ccccc1)c1cccnc1
    -7%	x	5%	-4.0%	u	10%	-4%	1%
O=C(CCc1nnc(CCCc2ccccc2)o1)NCCCC1CCCC1
    -2%	-14%	u	x	1%[46.1 µM]	14%	-1%	x
CCn1c(=S)sc2c(=O)n(CC(=O)Nc3cccc(Br)c3)c(C)nc21
    -6%	-10%	x	x	x	0%	11%	x
COc1ccc(C(=O)NNc2cc(C)nc(NNC(=O)c3ccc(OC)cc3)n2)cc1
    -1%	u	19%	x	u	4%	7%	x
